High-throughput results (PubChem BioAssay)
NPYLR7 agonist – agonists of mosquito NPYLR7 receptor, primary screen, cell-based, Aedes aegypti, calcium fluorescence, mosquito biting behavior. Aedes aegypti neuropeptide Y-like receptor 7 (NPYLR7). HEK293T NPYLR7/Galpha15, GCaMP6s calcium fluorescence. activation, % at 10 µM. 270,000 compounds, 0.15% hits; in the data active = activation above about 40%;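 note: 0% = vehicle and 100% = reference agonist at the receptor; some compounds past the cut are filed as inactive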
NPYLR7 agonist max-min – second read-out of NPYLR7 agonist, no call of its own (marks repeat the call); activation, %; measured here: Max-Min RFU normalised activation; some inactives read as strong as hits;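 span of the calcium signal over five minutes; 0% = vehicle and 100% = native peptide agonist; compound fluorescence can raise it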
* marks the source's active call; other numbers are inactive results. This is a subset. The share of hits here may be higher or lower than overall.

compound | NPYLR7 agonist | NPYLR7 agonist max-min
C=CCOC(C)C(=O)N1CCCC1c1ncc(-c2cccc(C)c2)[nH]1 (stereo not drawn) | 0.5 | -0.1
CN(Cc1ccccn1)S(=O)(=O)c1cnn(-c2ccccc2F)c1 | 5.2 | -14.8
O=C1CN(CCc2ccccc2F)C2CS(=O)(=O)CC2N1c1cccc(Cl)c1 (stereo not drawn) | 6.0 | 4.0
Cc1nc(-c2cccnc2)sc1-c1ccc(SCC(=O)N2CCN(c3ccccc3)CC2)nn1 | 2.9 | 1.4
CCN(CCN1CCCC1)C(=O)c1cn(C)nc1C | -0.4 | -27.0
O=C1C[C@H]2CC[C@@H](CN1)N2C(=O)c1ccccc1-n1cncn1 | 24.0 | 7.2
CCN1CCN(c2c(CN(C(=O)CCc3ccccc3)C(C)C)c(C)nn2-c2ccccc2)CC1 | 0.0 | 9.5
CCN(C)c1nc(-c2ccccc2)nc2c1CN(C(=O)C(Cl)c1ccccc1)CC2 (stereo not drawn) | -7.3 | 2.4
O=C(O)C1CCc2[nH]nc(C(F)(F)F)c2C1 (stereo not drawn) | 3.1 | 0.8
CN(CC(=O)Nc1ccccc1Cl)Cc1nc2cc(Cl)ccc2n1C | 11.7 | 11.1
NC(=O)Cn1c(CO)cnc1SCc1ccccc1 | 10.6 | 4.6
Cc1nc2n(n1)C(=O)C(C(c1cccc(Br)c1)N1CC(C)OC(C)C1)S2 (stereo not drawn) | -1.0 | -1.7
Cc1cc(NC(=O)COC(=O)C2=COCCO2)no1 | -0.7 | -2.4
CN(Cc1ccco1)S(=O)(=O)c1ccc(C(=O)Nc2ncnc3sccc23)cc1 | 8.6 | 1.8
O=C(C=C1CCCCC1)NCC1CCCN(Cc2cccs2)C1 (stereo not drawn) | 9.3 | 4.6
O=C(NCCCc1ccccc1)C1CC(Cc2cccc(F)c2)=NO1 (stereo not drawn) | 2.7 | 0.4
NC1CCN(C(=O)c2cc3n(n2)CCN(Cc2ccccc2)C3)C1 (stereo not drawn) | 5.6 | 3.3
O=C(Nc1ccc(O)c(-c2nc3ccccc3o2)c1)c1ccc(Cl)c([N+](=O)[O-])c1 | -2.0 | -15.9
O=C(c1cn(C2CCCCCC2)nn1)N1CCC(Oc2cccnc2)CC1 | 6.2 | 1.7
CCCC(=O)N1CCC(N2CCN(c3ccnc(SC)n3)CC2)CC1 | 23.7 | 10.7
COc1ccc(-c2csc(=Nc3cccc(Cl)c3)n2NC(=O)CNc2ncc(C(F)(F)F)cc2Cl)cc1 | 15.1 | -0.8
Cc1nc(CNC2CCN(c3cccc(C)c3C)CC2)cs1 | 9.8 | 7.5
O=C(CN(C(=O)Nc1ccc(Cl)cc1Cl)C1CCCCC1)N(Cc1ccc(F)cc1)Cc1cccs1 | -6.8 | -5.2
C/C=C(\C)C(=O)Nc1sc(CCC)cc1C(=O)OCC | 9.7 | 0.0
COCCOCC(=O)N1CCN(CC(OCc2c(F)cccc2F)c2ccc(Cl)cc2)CC1 (stereo not drawn) | -1.3 | 5.9
CC(=O)Oc1c(Br)cc2oc(=O)sc2c1Br | 1.0 | -5.8
CCCCNC(=O)C1(C)CCCCN1C(=O)c1csnn1 (stereo not drawn) | 1.8 | -0.2
CC(Sc1nnc(-c2ccccc2Cl)n1C)C(=O)NC1CCCC1 (stereo not drawn) | 7.2 | 3.2
Oc1c(F)cccc1CN1CC[C@@H](c2ccc3ccccc3c2)[C@H](O)C1 | 2.9 | 2.1
O=C(NN=Cc1ccccc1Cl)c1cc(-c2ccccc2)n[nH]1 | 1.3 | -1.8
Cn1cc(NC(=O)CN2CCCCC2CCN2CCOCC2)cn1 (stereo not drawn) | -2.2 | -3.8
O=C(c1ccc(C(F)(F)F)cc1)N1CCN(c2nc(-c3ccc(F)cc3)nc3cc(Cl)ccc23)CC1 | 11.2 | 12.1
Cc1nc(=O)c(-c2ccccc2)c(C)n1N(Cc1ccccc1)c1ccccc1 | -15.1 | -17.6
CC1CN(c2ccccc2)CCN1C(=O)c1cc(-c2ccncc2)n[nH]1 (stereo not drawn) | 24.5 | 14.8
CCOc1ccc(Cl)c(C(=O)Nc2ccc3c(c2)CCCN3C)n1 | 0.7 | -1.6
Cc1nc2sc(C(N)=O)c(N)c2c(C)c1C | 1.7 | 2.5
CCCCOCCCNC(=O)c1ccc(Cl)cc1Cl | 4.3 | 2.5
CN(C)C(=O)c1cnc(N2CCN(CCO)CC2)c(Cl)c1 | 0.1 | -1.6
CC(C)Oc1ccc(C(=O)NCCS(=O)(=O)N2CCc3ccccc3C2)cc1 | 7.8 | 2.6
COc1ccc(-c2nnc(SCC(=O)N/N=C\c3cccn3C)n2-c2ccccc2)cc1OC | 11.2 | 20.2
COc1ccc(-c2cc(C(F)(F)F)n3ncc(C(=O)Nc4ccccc4SC)c3n2)cc1 | 1.7 | -0.9
O=C(NNc1ccc(Cl)c(Cl)c1)c1ccc(NC(=O)C2CC2)cc1 | -3.1 | -3.4
CN(C)c1ccc(CNC(=O)C2(C)Cc3c(-c4ccccc4)ccnc3O2)cc1 (stereo not drawn) | -1.5 | -4.6
O=C1CC2(CCN(C(=O)/C=C(/C(=O)N3CCC4(CC3)CC(=O)c3cc(F)ccc3O4)c3ccccc3)CC2)Oc2ccc(F)cc21 | -9.1 | -13.6
C#CCn1c(=NC(=O)c2ccn(C)n2)sc2cc(S(N)(=O)=O)ccc21 | 5.2 | 12.9
O=C(COC(=O)c1n[nH]c2ccccc12)Nc1ccc(F)c(F)c1 | -1.3 | -3.2
Cc1nnc(NC(=O)c2ccc3c(c2)ncn3-c2ccccc2)s1 | 3.2 | 2.4
Fc1ccccc1-c1noc(-c2ccc(NC3CCSC3)nc2)n1 (stereo not drawn) | 13.9 | 6.1
COc1ccccc1Oc1ncccc1CNc1nc(C)ncc1C | -1.3 | -1.8
CC(C)c1ccsc1C(=O)N(CCC(N)=O)c1ccccc1 | -0.5 | -1.0
CCC(CC)c1nnc(NC(=O)CCCc2nc3ccccc3s2)s1 | -0.9 | 11.0
CN1N=C(C(=O)N2CCOC(Cc3cccc4ccccc34)C2)CCC1=O (stereo not drawn) | 5.2 | 0.9
CSc1ccc(NC(=O)C2(C)CCN2C(=O)c2ccccc2CCc2ccccc2)cc1 (stereo not drawn) | -3.2 | -3.6
C#CCN(Cc1ccc(F)cc1)C(=O)c1ccnc(N(C)C)c1 | 7.2 | 5.7
Cc1ccc(-n2ncc3c(=O)[nH]c(-n4nc(C)cc4NC(=O)c4ccco4)nc32)cc1 | -3.2 | -8.6
O=C(c1ccc(-c2cccc(Cl)c2)s1)N1CCc2ccccc2C1 | 8.9 | 21.9
COC(=O)[C@@H](NC(=O)c1nc(C)n2c1CCCC2)C(C)(C)C | 6.9 | 7.7
CCOC1CC(O)C12CCN(c1ccc(F)cc1C#N)CC2 (stereo not drawn) | 1.9 | -0.1
Cc1cc(C)c(Nc2n[nH]c(=S)s2)c(Cl)c1 | -8.3 | -7.3
NC(=O)c1nc(-c2ccc(F)cc2)nc2c1[nH]c(=O)n2-c1ccccc1F | -5.5 | -8.7

CCC(C)Nc1nc2c(c(=O)n(C)c(=O)n2C)n1Cc1ccccc1 (stereo not drawn)
  NPYLR7 agonist: 18.6
  NPYLR7 agonist max-min: 5.7

CN(CCOc1ccccc1)C(=O)c1cc(Br)ccc1O
  NPYLR7 agonist: -2.0
  NPYLR7 agonist max-min: 1.7

C[C@@H]1CC[C@H](C)N1C(=O)c1cc(COc2cccc(F)c2)[nH]n1
  NPYLR7 agonist: 1.4
  NPYLR7 agonist max-min: 1.1

CCOC(=O)C1(Cc2ccccc2C)CCCN(C(=O)c2ccc3nc(C)[nH]c3c2)C1 (stereo not drawn)
  NPYLR7 agonist: 5.7
  NPYLR7 agonist max-min: 2.4

COc1ccc(C(=O)NCCn2ncccc2=O)cc1OC
  NPYLR7 agonist: 0.3
  NPYLR7 agonist max-min: -0.2

O=C(Cn1c(=O)n(CC2CCCO2)c(=O)c2sc3ncccc3c21)Nc1ccccc1Cl (stereo not drawn)
  NPYLR7 agonist: 2.9
  NPYLR7 agonist max-min: 2.7

COc1ccc(CNC(=O)CCC(=O)N2CCc3c([nH]c4ccccc34)C2)c(OC)c1
  NPYLR7 agonist: -8.6
  NPYLR7 agonist max-min: -12.7

COc1cccc(NC(=O)C2(C)CCN2C(C)C)c1OC (stereo not drawn)
  NPYLR7 agonist: 7.2
  NPYLR7 agonist max-min: 3.1

CC(=O)N1CCN(c2nc(SCc3ccc(C(=O)O)cc3)nc(C)c2C)CC1
  NPYLR7 agonist: 9.4
  NPYLR7 agonist max-min: 17.6

CCCOc1cccc(C(=O)Nc2ccc(-c3nc4cc(C)c(C)cc4o3)cc2)c1
  NPYLR7 agonist: 11.8
  NPYLR7 agonist max-min: 8.1

Nc1ccc(S(=O)(=O)Nc2ccc(Cl)cc2)cc1
  NPYLR7 agonist: -4.9
  NPYLR7 agonist max-min: -6.6

CCOC(=O)CCc1c(C)nc2ncnn2c1NCc1cc(C(F)(F)F)cc(C(F)(F)F)c1
  NPYLR7 agonist: 11.8
  NPYLR7 agonist max-min: 8.2

O=C(NCCCN1CCCC1)C1CCC(=O)N1C1CCCC1 (stereo not drawn)
  NPYLR7 agonist: 2.4
  NPYLR7 agonist max-min: -0.6

S=c1nc(-c2ccccc2Br)[nH][nH]1
  NPYLR7 agonist: -8.3
  NPYLR7 agonist max-min: -12.5

COC(=O)c1ccc(-c2noc(CN(C)Cc3cc4ccccc4s3)n2)cc1
  NPYLR7 agonist: 9.0
  NPYLR7 agonist max-min: -5.3

CC1ON=C(c2ccco2)N(C)C1=O (stereo not drawn)
  NPYLR7 agonist: 4.6
  NPYLR7 agonist max-min: 2.8

CCCOCCCNC(=O)c1cncn1-c1ccc(-c2ccccc2C)cc1
  NPYLR7 agonist: -9.2
  NPYLR7 agonist max-min: -17.9

CCOc1cc(C2NC(=S)NC(C)=C2C(=O)OC)ccc1OCC(=O)N(C)C (stereo not drawn)
  NPYLR7 agonist: 2.1
  NPYLR7 agonist max-min: 6.9

CC(C(=O)O)N1C(=O)/C(=C/c2cccnc2)SC1=S (stereo not drawn)
  NPYLR7 agonist: -0.9
  NPYLR7 agonist max-min: -0.3

CCN(Cc1ccccc1)c1nc(-c2cc3ccccc3o2)nc2ccccc12
  NPYLR7 agonist: -0.7
  NPYLR7 agonist max-min: 9.4

COc1ccc(C=C(C#N)C(N)=S)cc1OC
  NPYLR7 agonist: 13.2
  NPYLR7 agonist max-min: 10.8

CC1CCCC2(C1)OCC(C(=O)NC(C)c1ccccc1)N2C(=O)c1ccccc1F (stereo not drawn)
  NPYLR7 agonist: -6.5
  NPYLR7 agonist max-min: 10.3

CN(C)C(=O)c1ccccc1C(=O)Nc1ccc(Br)cc1
  NPYLR7 agonist: 10.0
  NPYLR7 agonist max-min: 5.9

COc1ccc2[nH]c(C(=O)NCc3cccnc3N(C)C)c(C)c2c1
  NPYLR7 agonist: 27.5
  NPYLR7 agonist max-min: 15.9

COCCNC(=O)C1CCCN(C2CCN(Cc3snnc3C)CC2)C1 (stereo not drawn)
  NPYLR7 agonist: 9.1
  NPYLR7 agonist max-min: -3.4

CNS(=O)(=O)c1ccc(CCC(=O)N(C)C2CCS(=O)(=O)C2)cc1 (stereo not drawn)
  NPYLR7 agonist: 4.6
  NPYLR7 agonist max-min: 2.7

COc1cc(CNCCN(C)C)cc2c1OCO2
  NPYLR7 agonist: 1.8
  NPYLR7 agonist max-min: 0.8

COCc1noc(CCNc2nc(-c3ccccc3)nc3c2CCNC3)n1
  NPYLR7 agonist: -3.8
  NPYLR7 agonist max-min: -7.5

CN(CCC1(O)CCCC1)C(=O)c1ncn[nH]1
  NPYLR7 agonist: 12.2
  NPYLR7 agonist max-min: 10.2

COc1cc2c(cc1OC)C(CNC(=O)c1cccs1)N(Cc1cccc(C)c1)CC2 (stereo not drawn)
  NPYLR7 agonist: -5.1
  NPYLR7 agonist max-min: 0.1

COc1cc(C)c(C(C)C)cc1S(=O)(=O)NC1CC(C)(C)NC(C)(C)C1
  NPYLR7 agonist: 5.4
  NPYLR7 agonist max-min: 3.5

Cc1ccsc1S(=O)(=O)N1CCc2c(nc(N(C)C)[nH]c2=O)C1
  NPYLR7 agonist: -3.7
  NPYLR7 agonist max-min: -3.6

Cc1ccc(C(CN2CCOCC2)NS(=O)(=O)c2cc(F)cc(F)c2)cc1 (stereo not drawn)
  NPYLR7 agonist: 1.9
  NPYLR7 agonist max-min: 8.1

CC(Sc1nnnn1C(C)C)C(=O)Nc1ccccc1 (stereo not drawn)
  NPYLR7 agonist: -5.6
  NPYLR7 agonist max-min: -6.1

CCCN(CCC)C1=CC(=O)C(C)=C(C)C1=O
  NPYLR7 agonist: -8.8
  NPYLR7 agonist max-min: -8.1

CN1CC2(CCN(C(=O)c3cnc4cccnn34)C2)OC1=O (stereo not drawn)
  NPYLR7 agonist: 18.5
  NPYLR7 agonist max-min: 4.2
